Source: PubChem BioAssay
GALR2 ag – activates the human galanin receptor 2; GALR2-expressing cells, agonist activation read-out; activation, %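 (tested at 5 µM)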; 0.48% of 140,000 active; AID 803;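 active means above mean plus 3 SD of all compounds, about 5% in these data, not always enough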;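 further: 0% = vehicle buffer wells and 100% = reference agonist at full effect; tested in CHO reporter cells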
Target sequence (O43603 whole entry, looked up): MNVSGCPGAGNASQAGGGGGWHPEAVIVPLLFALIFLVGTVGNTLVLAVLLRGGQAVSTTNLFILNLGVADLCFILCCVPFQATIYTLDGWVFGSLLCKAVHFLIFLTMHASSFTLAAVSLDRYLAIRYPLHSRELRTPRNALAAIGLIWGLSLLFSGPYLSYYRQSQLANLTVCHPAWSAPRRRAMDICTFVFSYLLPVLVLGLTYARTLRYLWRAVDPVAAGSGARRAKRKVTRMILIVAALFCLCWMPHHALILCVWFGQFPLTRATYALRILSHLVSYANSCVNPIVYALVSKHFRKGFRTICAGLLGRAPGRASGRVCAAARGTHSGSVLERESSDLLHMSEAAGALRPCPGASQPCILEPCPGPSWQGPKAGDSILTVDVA
HSV replic up – HSV replication enhancement; AID 1956; 0.005% of 220,000 active; maximum fold increase; HSV replication augmentation in cells, fold increase;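 active means peak rise of 1.5-fold or more in the series; tested in PC3 cells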;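 further: first round at 10 µM; read as green reporter fluorescence; hits show the peak of a series up to 25 µM; 1 = signal of infected wells without compound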
Insulin prom inh – TRM-6 insulin promoter activity inhibition | TRM-6 cells (human fetal islet line), insulin promoter-eGFP reporter, imaging; reporter expression induced with tamoxifen | inhibition, % at 2 µM | 0.9% of 130,000 active | AID 1273;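 active means inhibition above the mean plus 3 SD, with well images judged a real hit on visual review, cut at about 60% in these data, passing the limit was not always enough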
RGS16-Gao HTS – modulates binding between human RGS16 and Galphao. O15492+P09471. AID 1441. binding response (% of control), % at 10 µM. 0.38% of 220,000 active. bead-based flow cytometry RGS16-Galphao binding, fluorescence; actives lie on both sides;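 active means below 25% or above 175%, edge rows of some plates excepted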;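 further: Galphao activated by GDP with aluminum fluoride before binding; 100% = wells without compound and 0% = beads without RGS; some results beyond the cut were filed as inactive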
Target sequence (O15492 whole entry, looked up): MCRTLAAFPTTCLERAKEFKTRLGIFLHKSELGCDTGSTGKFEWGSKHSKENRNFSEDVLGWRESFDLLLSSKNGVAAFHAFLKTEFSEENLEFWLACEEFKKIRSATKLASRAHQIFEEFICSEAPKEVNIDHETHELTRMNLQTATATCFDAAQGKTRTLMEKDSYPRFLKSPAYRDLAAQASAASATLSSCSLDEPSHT
Target sequence (P09471 whole entry, looked up): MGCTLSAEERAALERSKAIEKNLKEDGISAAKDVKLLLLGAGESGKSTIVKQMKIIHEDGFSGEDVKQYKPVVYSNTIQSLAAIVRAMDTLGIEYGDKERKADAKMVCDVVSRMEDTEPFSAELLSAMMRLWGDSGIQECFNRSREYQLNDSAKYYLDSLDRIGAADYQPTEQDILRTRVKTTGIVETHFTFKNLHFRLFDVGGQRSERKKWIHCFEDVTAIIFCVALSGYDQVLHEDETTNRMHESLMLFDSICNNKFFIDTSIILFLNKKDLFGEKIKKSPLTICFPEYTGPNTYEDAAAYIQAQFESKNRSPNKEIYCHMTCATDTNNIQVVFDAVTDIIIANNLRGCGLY
PKD1 inh – inhibitors of human PKD1 kinase; PKD1 kinase fluorescence polarization assay; inhibition, %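 (about 10 µM by stock and volumes)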; 0.056% of 200,000 active; AID 797;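 active means inhibition of 50% or more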;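 further: controls were vehicle for no effect and a reference inhibitor for full effect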
Insulin prom inh cell count – also measured in Insulin prom inh; calls as there; normalized cell count, %; measured here: cell count, toxicity; reference of the scale not given here;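 cells exposed to compound for 48 h; stained nuclei by imaging scaled within each plate; lower means fewer cells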
HSV replic up primary fold – second read-out of HSV replic up, no call of its own (marks repeat the call); fold increase; compound at 10 µM; measured here: primary screen fold increase 10 uM; tested in PC3 cells;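 GFP signal in the first replicate; 1 = infected wells without compound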
Starred values were filed as active, the others as inactive; i = inactive; . = not tested or not shown.

SMILES | GALR2 ag | HSV replic up | HSV replic up primary fold | Insulin prom inh | Insulin prom inh cell count | RGS16-Gao HTS | PKD1 inh
CN(C)S(=O)(=O)c1cc(NC(=O)COC(=O)C2COc3ccccc3O2)ccc1Cl (stereo not given) | . | i | 1.1 | 7 | 105 | 102 | -1
CCOc1ccccc1C1CC(c2ccc(F)cc2)Nc2nc(N)nn21 (stereo not given) | -0.6 | i | 1 | . | . | 103 | 1
Cc1ccc(C(=O)NCCn2cc(SCC(=O)N3CCOCC3)c3ccccc32)cc1 | -2.0 | i | 0.96 | . | . | 101 | -7
Cc1ccc2cc3cc(C(=O)NCc4ccco4)oc3nc2c1 | 1.2 | i | 0.89 | -50 | 173 | 73 | 9
Cn1c(=O)cc(SCC(=O)NCCCN2CCOCC2)c2ccccc21 | -2.4 | i | 0.97 | . | . | 104 | 4
Cc1ccc(-c2cnc3n2CCCCC3)cc1 | . | i | 1.1 | -8 | 160 | 111 | -8
CN(C(=O)COC(=O)c1ccc2c(c1)OCO2)C1CCS(=O)(=O)C1 (stereo not given) | 0.1 | i | 1.1 | . | . | 102 | 3
CC(=O)C1=C(C)NC(SCSc2ccccc2)=C(C#N)C1c1cccnc1 (stereo not given) | -0.3 | i | 0.91 | -500 | 61 | 81 | -3
Cc1ccc(CN2CCN(C3CSCCSC3)CC2CCO)cc1 (stereo not given) | . | i | 1.1 | . | . | 101 | -3
Cc1onc(-c2ccccc2)c1C(=O)NCC1CCN(C(=O)c2c(-c3ccccc3)noc2C)CC1 | 0.1 | i | 0.95 | 5 | 72 | 96 | -3
O=C(C1CCC(CNc2c(N3CCCC3)c(=O)c2=O)CC1)N1CCc2ccccc21 (stereo not given) | . | i | 1 | . | . | 104 | .
O=c1c2ccccc2n2c(-c3ccc(C(F)(F)F)cc3)nnc2n1Cc1ccccc1 | 1.2 | i | 1.1 | . | . | 105 | -2
CC(C)(C)NC(=O)N1CCCC(C(=O)c2cccc(Cl)c2)C1 (stereo not given) | . | i | 0.96 | . | . | 98 | -3
Cc1cc(=O)n2[nH]c(-c3ccc(F)cc3)nc2n1 | 0.1 | i | 0.94 | . | . | 102 | -6
O=C(Nc1ccsc1C(=O)N1CCCC1)c1ccccc1 | . | i | 1 | 91* | 181* | 112 | -12
CCn1c(SCC(=O)N2CCCC2)nnc1-c1ccc(S(=O)(=O)N2CCCCCC2)cc1 | -1.1 | i | 0.97 | 45 | 81 | 95 | -1
CCCCN(CC)C(=O)Cn1ncc2c1-c1cc(C)ccc1OC2 | -0.1 | i | 0.91 | . | . | 100 | -6
Cc1cc(C)n(-c2ccc(Cl)c(C(=O)Nc3ccc(-c4nnc5n4CCCCC5)cc3)n2)n1 | -1.6 | i | 0.92 | -9 | 75 | 79 | -11
CCN(CC)C1CCS(=O)(=O)C1 (stereo not given) | . | i | 1 | 0 | 48 | 109 | -1
Cc1ccc(CNC(=O)CCc2ccccc2)cc1 | . | i | 1 | . | . | 102 | -4
COCCCNC(=O)C1CCCN(S(=O)(=O)c2ccc(C)cc2)C1 (stereo not given) | -1.3 | i | 1.1 | -59 | 152 | 109 | 3
NN(CCO)C(=S)Nc1ccc(Cl)cc1 | . | i | 0.92 | . | . | 99 | -6
CCOC(=O)C1(CCCc2ccccc2)CCN(Cc2ccn[nH]2)CC1 | . | i | 1 | . | . | 96 | -3
O=C(NCCCCC(NC(=O)C1CCCCC1)C(=O)O)c1ccccc1 (stereo not given) | -3.7 | i | 0.99 | -38 | 74 | 97 | -4
CC(=O)c1ccc(-c2ccccc2OC(F)(F)F)o1 | . | i | 0.87 | . | . | 109 | .
CCOc1ccc(/C=N/NC(=O)C(C)N(c2ccc(OC)cc2)S(C)(=O)=O)cc1OCC (stereo not given) | . | i | 0.78 | -45 | 81 | 121 | -1
CCCc1nn(C)c(C(=O)Nc2cccc(C)c2)c1Cl | -1.6 | i | 0.89 | 0 | 131 | 106 | 0
Cc1ccc(N2C(=O)CC(Sc3ccccc3C(=O)O)C2=O)cc1 (stereo not given) | 0.1 | i | 0.89 | -4 | 108 | 96 | -8
O=C(CC(SCc1ccco1)c1ccc(O)cc1)c1cccs1 (stereo not given) | -1.3 | i | 1.1 | -6 | 35 | 94 | 6
CC(C)CNC(=O)CC(NCC(C)C)C(=O)O (stereo not given) | -0.6 | i | 1.1 | 56 | 98 | 100 | -5
CCc1nc2ccccc2c(C(=O)OC2CCOC2=O)c1C (stereo not given) | 0.2 | i | 0.94 | -18 | 97 | 95 | 2
O=C(NCC1CCCO1)c1sc2ccccc2c1Cl (stereo not given) | -0.5 | i | 0.93 | -27 | 118 | 105 | 4
Nc1c(C(=O)c2ccc(Cl)cc2)sc2c1c(=O)[nH]c(=O)n2-c1ccccc1 | 22* | i | 0.99 | . | . | 112 | -5
CCc1ccccc1OCC(=O)NC1CCCC1 | 2.3 | i | 1.1 | 4 | 84 | 103 | -6
O=C(CSc1ccc2c(c1)OCCO2)NCC1CCCO1 (stereo not given) | -3.4 | i | 0.97 | . | . | 109 | 11
CS(=O)(=O)NC1CCN(Cc2ccccc2)CC1 | -1.5 | i | 1.1 | 26 | 133 | 105 | -3
O=C1C(Cl)=C(N2CCOCC2)C(=O)N1c1ccccc1 | -3.4 | i | 0.79 | 0 | 129 | 93 | 3
Cc1cc(C)n(-c2nc(NCCC(C)C)c3c4c(sc3n2)COC(C)(C)C4)n1 | -0.8 | . | . | -14 | 81 | 89 | -11
Cc1occc1C(=O)NNC(=S)Nc1ccccc1 | -2.1 | i | 0.84 | 4 | 95 | 99 | -4
CN(C)S(=O)(=O)c1cccc(NC(=O)CCSc2ccc(Cl)cc2)c1 | -0.6 | . | . | -62 | 111 | 109 | 6
Cc1ccc(C(=O)Nc2ccc(O)c(C(=O)O)c2)o1 | -1.7 | i | 1.1 | -77 | 112 | 99 | -10
CC(=O)Nc1ccc(OS(=O)(=O)c2ccccc2C)cc1 | . | i | 1.1 | . | . | 111 | -1
CCNC(=S)NNC(=O)c1cc(C)on1 | 0.4 | i | 0.93 | . | . | 86 | 1
Cc1ccc(-c2nc(C3CCN(S(C)(=O)=O)CC3)no2)cc1 | -2.7 | i | 0.92 | . | . | 91 | -8
CC(=O)c1cccc(NC(=O)COC(=O)COc2c(Cl)cc(Cl)c3ccc(C)nc23)c1 | -2.3 | i | 1 | -22 | 58 | 105 | 10
Cc1c(NC(=O)C(c2ccccc2)c2ccccc2)cccc1C(=O)O | . | i | 0.83 | . | . | 101 | .
CC(=O)C1=C(c2ccccc2)NC(=S)NC1c1cc(Cl)c(OC(C)C)c(Cl)c1 (stereo not given) | 0.4 | i | 1.1 | . | . | 88 | 0
O=c1c2cc3c(cc2[nH]c(=S)n1CCN1CCOCC1)OCO3 | -2.7 | i | 0.82 | 8 | 96 | 102 | 10
O=c1c2cn[nH]c2nc(SCc2cc(=O)n3cc(Br)ccc3n2)n1-c1ccc(Br)cc1 | . | i | 0.89 | . | . | 106 | -2
O=C(Nc1ccc(Oc2c(F)c(F)c(F)c(F)c2F)cc1)OC1CCN2Cc3ccccc3N=C12 (stereo not given) | . | i | 0.38 | . | . | 96 | .
COc1cccc2sc(Nc3nnc(-c4ccc(F)cc4)o3)nc12 | -2.5 | i | 0.9 | . | . | 97 | -18
CCOC(=O)C1CCN(C(=O)Cn2cc(C(=O)c3ccco3)c3ccccc32)CC1 | -1.1 | i | 0.89 | -335 | 92 | 97 | -5
Cc1ccc(OCC(=O)N/N=C\c2cn(C)c3ccccc23)c([N+](=O)[O-])c1 | -1.5 | i | 0.97 | . | . | 102 | 2
CCn1c(=O)n(Cc2ccco2)c(=N)c2c3c(sc21)COC(C)(C)C3 | -0.8 | i | 0.71 | -26 | 141 | 97 | -8
Cc1ccc(N(C(=O)C2CCCC2)C2C=CS(=O)(=O)C2)cc1 (stereo not given) | 0.1 | i | 0.97 | -21 | 109 | 94 | -10
CCOCCOCN(C#N)c1nc(OC)nc(N(C)C)n1 | -2.4 | i | 0.9 | -28 | 87 | 98 | 3
COc1ccccc1NC(=O)CN1C(=O)C(C)SC(C)C1=O (stereo not given) | -0.4 | i | 1 | . | . | 108 | 1
Cc1ccc(CN2C(=O)CSc3ccc(C(=O)NCCN4CCOCC4)cc32)cc1 | 0.0 | i | 0.97 | . | . | 109 | -5
Cc1occc1C(=O)N1CCN(c2ccccc2)CC1 | -0.2 | i | 1 | -8 | 134 | 101 | -5
CC(NC(=O)C1CCCCC1)C(c1cccs1)N1CCN(C)CC1 (stereo not given) | . | i | 0.86 | . | . | 98 | .

Random excerpt: two records from the list.
SMILES | GALR2 ag | HSV replic up | HSV replic up primary fold | Insulin prom inh | Insulin prom inh cell count | RGS16-Gao HTS | PKD1 inh
COc1cccc2sc(Nc3nnc(-c4ccc(F)cc4)o3)nc12 | -2.5 | i | 0.9 | . | . | 97 | -18
CCOC(=O)C1CCN(C(=O)Cn2cc(C(=O)c3ccco3)c3ccccc32)CC1 | -1.1 | i | 0.89 | -335 | 92 | 97 | -5

Continuation:
SMILES | GALR2 ag | HSV replic up | HSV replic up primary fold | Insulin prom inh | Insulin prom inh cell count | RGS16-Gao HTS | PKD1 inh
COc1cc2c(cc1NC(=O)CN(C)Cc1nc3ccccc3c(=O)[nH]1)oc1ccccc12 | 0.1 | i | 0.8 | . | . | 99 | -7
O=C(Nc1ccncc1)c1cccc(F)c1 | -2.4 | i | 0.78 | -32 | 154 | 103 | 2
CCCCOc1ccc(S(=O)(=O)NCc2csc(C)n2)cc1 | -3.6 | i | 0.88 | . | . | 114 | 8
O=C(Nc1ccc(N2CCOCC2)cc1)C1CC(=O)N(c2ccc(F)cc2)C1 (stereo not given) | . | i | 1 | 67 | 126 | 113 | 1
CCOC(=O)C1=C(C)OC(N)=C(C#N)C1c1c(C)nn(-c2ccccc2)c1Cl (stereo not given) | -2.2 | i | 0.98 | 8 | 126 | . | -1
CCOC(=O)N1CCc2c(sc3nc4n(c(=O)c23)N=C(C)CS4)C1 | 0.0 | i | 0.88 | 9 | 88 | 44 | 8
CN(C(=O)COC(=O)c1cnc(Cl)c(Cl)c1)C1CCS(=O)(=O)C1 (stereo not given) | . | i | 0.97 | . | . | 57 | 5
CCN(CC)c1ccc(NC(=O)CN2CCN(S(=O)(=O)c3cc(Cl)ccc3OC)CC2)cc1 | -3.5 | i | 0.78 | -3 | 63 | 94 | 0
CC(=O)Nc1ccc2nc(-c3ccncc3)[nH]c2c1 | -1.7 | i | 0.76 | -492 | 53 | 103 | -3
O=C(Nc1ccccc1)c1cc2ccc3ccccc3c2s1 | . | i | 0.89 | . | . | 101 | .
O=S(=O)(Nc1ccc(S(=O)(=O)N2CCOCC2)cc1)c1ccccc1 | -2.0 | i | 1.1 | -15 | 88 | 89 | 0
Cc1ccc([N+](=O)[O-])c2c1C(N1CCCCC1)C(C)(C)O2 (stereo not given) | . | i | 0.85 | . | . | 100 | 5

Some of these compounds in order of formula weight, low to high:
SMILES | GALR2 ag | HSV replic up | HSV replic up primary fold | Insulin prom inh | Insulin prom inh cell count | RGS16-Gao HTS | PKD1 inh
O=C(Nc1ccncc1)c1cccc(F)c1 | -2.4 | i | 0.78 | -32 | 154 | 103 | 2
CCCCOc1ccc(S(=O)(=O)NCc2csc(C)n2)cc1 | -3.6 | i | 0.88 | . | . | 114 | 8
CCOC(=O)N1CCc2c(sc3nc4n(c(=O)c23)N=C(C)CS4)C1 | 0.0 | i | 0.88 | 9 | 88 | 44 | 8
CN(C(=O)COC(=O)c1cnc(Cl)c(Cl)c1)C1CCS(=O)(=O)C1 (stereo not given) | . | i | 0.97 | . | . | 57 | 5
CCOC(=O)C1=C(C)OC(N)=C(C#N)C1c1c(C)nn(-c2ccccc2)c1Cl (stereo not given) | -2.2 | i | 0.98 | 8 | 126 | . | -1

Hits appear at their usual frequency, and some 1.3% of all compounds hit somewhere here.
